Choline anaer gr = choline-fed anaerobic bacterial growth inhibition; Gram-negative bacterium anaerobic choline minimal medium, absorbance growth; stronger effect = lower value; many inactives read as strong as hits in the columns shown; calls only; 55,000 compounds, 0.2% hits; AID 1963822;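 active = growth z-score on choline under -2 at 7 or 20 h with little or no fall on glycerol, limits in tiers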;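 also: stock transfer was 300 nL into about 50 µL; the organism is E. coli; final concentration not given here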
Choline anaer gr early = further read-out of Choline anaer gr, marked with its call; z-score; measured here: choline growth z-score, timepoint 1;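 score of optical density at 7 h as mean of two plates; lower means less growth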
An asterisk follows results filed as active; i = inactive. A portion of the library, so the mix of outcomes need not match the whole.

SMILES	Choline anaer gr	Choline anaer gr early
CCOC(=O)c1[nH]c(C)c(CN(Cc2ccc(C)cc2)C(=O)c2ccccc2F)c1C	i	1.9
O=C(Nc1ccccc1F)C1Oc2ccccc2NC1=O (stereo not given)	i	0.38
Cc1ccc(-c2noc(CCC(=O)Nc3nnc(C(C)C)s3)n2)c(=O)n1C(C)C	i	0.49
CCOc1ccc(NC(=O)NCc2nnnn2-c2ccc(Cl)cc2)cc1	i	0.42
COc1ccc(C2CC(=O)Nc3c2c(C)nn3-c2ccc3nnc(C)n3n2)cc1OC (stereo not given)	i	0.4
O=C(Nc1ccc(F)cc1)c1nnc(C2CCCN(C(=O)c3cccc(Cl)c3)C2)s1 (stereo not given)	i	-0.87
CCOC(=O)c1cc(NC(=O)N2CCCCC2)c(C)nc1C	i	-0.19
Cc1nc(-c2ccc(F)cc2)sc1CCNS(=O)(=O)c1ccc2c(c1)CCCC2	i	-0.69
COc1ccc(CSc2nccc3c2ccn3CC(=O)N2CCN(c3ccccc3)CC2)cc1	i	0.04
CCN(C(=O)CN1C=NS(=O)(=O)c2ccccc21)c1cccc(C)c1	i	-1.1
CCc1ccc(-c2[nH]nc3c2C(c2ccc(C)cc2)C2=C(CC(C)(C)CC2=O)N3)cc1 (stereo not given)	i	-0.19
COc1cccc(NC(=O)CSc2nc3c(sc4ccccc43)c(=O)n2CCN(C)C)c1	i	-0.09
CC1=C(C(=O)OC(C)C)C(c2sccc2C)c2c(nc(SCC(C)C)[nH]c2=O)N1 (stereo not given)	i	0.68
O=C(NCc1ccc2c(c1)OCO2)c1ccc(NC(=O)c2nsc3ccccc23)cc1	i	0.45
O=c1c2cc3c(cc2nc(SCc2nc(-c4ccccc4)no2)n1Cc1ccccc1)OCO3	i	-0.03
CCc1nccn1Cc1noc(COC)n1	i	0.93
CC1CN(C(=O)COc2ccc3ccccc3c2)c2ccccc2NC1=O (stereo not given)	i	-1.2
Cn1cc(S(=O)(=O)N2CCC(C(=O)NCc3ccccn3)CC2)cc1C(=O)N1CCCC1	i	-0.16
COCCNC(=O)C1CCN(c2cc(C)nc3c(-c4ccc(OC)c(OC)c4)c(C)nn23)CC1	i	-0.59
COCCCNC(=O)c1c(NC(=O)c2csnn2)sc2c1CCCC2	i	1.3
CCC(=O)Nc1ccc2c(c1)C(=O)N(C)c1ccccc1O2	i	0.92
CS(=O)(=O)Nc1ccc(C2(C(=O)N3CCN(c4ccccc4)CC3)CCCCC2)cc1	i	-0.55
CCn1nccc1C1CCCN1C(=O)Nc1ccc(F)c(Cl)c1 (stereo not given)	i	-0.26
Cc1ccc(-c2cnnc(-n3nc(C)c4c3NC(=O)CC4c3cccc(C)c3)n2)cc1 (stereo not given)	i	-0.7
Cn1c(N2CCC(C(=O)NC3CCCCC3)CC2)cc(=O)n(C)c1=O	i	-2.2
Clc1ccc(-c2noc(CCCc3nc4ccccc4[nH]3)n2)cc1	i	-2.8
CCc1onc(C)c1C1CCCN1Cc1ccccc1F (stereo not given)	i	-1.4
Cc1cc(NC(=O)CN(C)S(=O)(=O)c2cc3c(cc2C)NC(=O)C(C)O3)no1 (stereo not given)	i	0
Cc1cc(SC(C)C(=O)N2CCc3ccccc32)nc2ccc(S(=O)(=O)N(C)C)cc12 (stereo not given)	i	0.05
CCOc1ccccc1NS(=O)(=O)c1cc2c(cc1Cl)NC(=O)CO2	i	-0.5
CCc1ccc(CNc2nc3nc(CNc4ccc(Br)cc4)cc(=O)n3[nH]2)cc1	i	0.31
CN1C(=O)COc2ccc(C(=O)O)cc21	i	-1.4
COc1ccccc1NC(=O)NCCc1c(C)nn(C)c1C	i	-0.3
Cc1ccc(-c2nc3cccnc3n2CCNS(=O)(=O)c2ccc(C(C)C)cc2)cc1	i	-0.1
O=c1c2ccccc2n2c(=S)[nH]nc2n1Cc1ccccc1	i	-1.5
CN(Cc1ccccc1)S(=O)(=O)c1ccc(-c2nc(C#N)c(N3CCOCC3)o2)cc1	i	1.4
CCOc1ccc(-n2nc3cc(C)c(NC(=O)c4ccc(Br)cc4)cc3n2)cc1	i	1.1
CC(C)NC(=O)Cc1ccc(-n2c(=O)c3ccccc3n(CC(=O)NC3CCCCC3)c2=O)cc1	i	0.5
Cc1onc(-c2ccccc2Cl)c1C(=O)Nc1cccc(-n2cnnn2)c1	i	-0.09
O=C(NCc1ccc(F)c(Cl)c1)C1CCN(c2ncccc2-c2nc(-c3ccccc3)no2)CC1	i	0.83
Cc1nn2c(S(=O)(=O)NCc3ccco3)c(C)nc2s1	i	-1
COC(=O)c1ccc(NC(=O)N2CCN(Cc3cc(=O)n4nc(-c5ccccc5)sc4n3)CC2)cc1	i	-0.69
Cc1nc(CC(=O)Nc2ccccc2C)cs1	i	0.05
COc1ccc(CNCc2c(C(=O)O)c(C)n(-c3ccccc3)c2C)cc1	i	0.74
O=C(NC1COc2ccccc2C1)N1CCN(C2CCCCC2)CC1 (stereo not given)	i	-2.6
Cc1cc(S(=O)(=O)Nc2c(C)nc3nc[nH]n3c2=O)ccc1F	i	-0.96
CCn1c(=O)c2c(C(=O)Nc3ccc(F)cc3)cc(=O)n(CC)c2n(C)c1=O	i	-1.3
CC(C)NC(=O)CSc1nc(N2CCc3ccccc3C2)nc2ccccc12	i	-0.16
CCOc1cc(CN2CCCC2c2cc(C)no2)ccc1OC(C)C (stereo not given)	i	0.36
CCn1c(=O)c(C(=O)Nc2cccc(F)c2)c(O)c2ccccc21	i	0.33
O=C(NC1CCCC1)C1CCN(c2nccnc2Sc2ccccc2)CC1	i	2
CCCCN1CCN(S(=O)(=O)c2ccc(-c3nnc(C4CCCC4)o3)o2)CC1	i	-0.74
CC(=O)N1CCCSc2ccc(S(=O)(=O)NC(C)(C)C)cc21	i	0.15
O=C(CCC1CCCC1)N1CCC(n2nc(-c3ccccc3)oc2=O)CC1	i	0.66
Cc1ccc(-c2noc(-c3cccnc3N3CCOCC3)n2)cc1	i	0.16
Nc1ccc(S(=O)(=O)Nc2ccccn2)cc1	i	0.6
Cc1cc(C)n2nc(N(Cc3ccccc3C)S(=O)(=O)c3ccccc3)nc2n1	i	-0.31
COc1cc(NC(=O)C2CCCN(S(=O)(=O)c3ccc4c(c3)NC(=O)CO4)C2)cc(OC)c1 (stereo not given)	i	-0.87
CCOC(=O)CC1(NC(=O)N2CCCC2c2cc(C)no2)CCCCC1 (stereo not given)	i	-0.4
O=S(=O)(c1ccc2c(c1)CCC2)N1CCC(c2noc(-c3ccc(F)cc3)n2)CC1	i	-1.4

Single entries from the results shown.
Value for `COc1cc(NC(=O)C2CCCN(S(=O)(=O)c3ccc4c(c3)NC(=O)CO4)C2)cc(OC)c1` (stereo not given) in Choline anaer gr early: -0.87
Value for `O=C(NC1CCCC1)C1CCN(c2nccnc2Sc2ccccc2)CC1` in Choline anaer gr early: 2

New compounds follow
SMILES	Choline anaer gr	Choline anaer gr early
O=C(CCC(=O)N1CCc2cc(S(=O)(=O)NC3CC3)ccc21)N1CCOCC1	i	-0.9
Cc1nn2c3c(cnc2c1-c1ccc(Cl)cc1)C(=O)CC(/C=C/c1ccccc1)C3 (stereo not given)	i	-0.05
CCCCCCCCCCCCCCCCOCC(CO)OC (stereo not given)	i	0.62
CN1CCN(CCCNC(=O)C2CCCN(c3nc4cccnc4s3)C2)CC1 (stereo not given)	i	-0.48
COc1ccc(NC(=O)CN2CCN(Cc3ccccc3F)S2(=O)=O)cc1Cl	i	-0.61
CCc1c(C)nc2ncnn2c1Nc1cccc(C)c1C	i	0.05
CC(=O)N1CCCc2cc(NC(=O)c3ccc(Br)cc3)ccc21	i	-0.8
Cc1ccc(C(=O)N2c3ccccc3NC(=O)CC2C)cc1 (stereo not given)	i	0.1
O=C(Cc1csc(NC(=O)C2CC2)n1)NC1CCCCC1	i	1.7
COP(=O)(OC)OC(c1ccc(Cl)cc1)P(=O)(OC)OC (stereo not given)	i	0.45
O=S(=O)(c1ccc(F)cc1)N1CCCN(c2nc3cccnc3s2)CC1	i	0.61
COc1ccc(C2N3CC4(C)CN2CC(C)(C3)C4O)cc1 (stereo not given)	i	0.65

Four entries from above, field by field.
canonical_smiles: COc1ccc(C2N3CC4(C)CN2CC(C)(C3)C4O)cc1 (stereo not given)
  Choline anaer gr: i | Choline anaer gr early: 0.65

canonical_smiles: COc1ccc(NC(=O)CN2CCN(Cc3ccccc3F)S2(=O)=O)cc1Cl
  Choline anaer gr: i | Choline anaer gr early: -0.61

canonical_smiles: COc1cccc(NC(=O)CSc2nc3c(sc4ccccc43)c(=O)n2CCN(C)C)c1
  Choline anaer gr: i | Choline anaer gr early: -0.09

canonical_smiles: CN(Cc1ccccc1)S(=O)(=O)c1ccc(-c2nc(C#N)c(N3CCOCC3)o2)cc1
  Choline anaer gr: i | Choline anaer gr early: 1.4

Next section.
SMILES	Choline anaer gr	Choline anaer gr early
Cc1ccc(-c2cnc(N3CCCC(C(=O)NC(C)C)C3)nc2)cc1 (stereo not given)	i	-0.55
Cc1ccc2[nH]c3c(c2c1)CCCC3C(N)=O (stereo not given)	i	-3.2
Cc1nc2c(-c3ccccc3)c(C)nn2c(C)c1CC(=O)NCc1cccc(Cl)c1	i	-0.01
CC(C)(C)NC(=O)CN1CCN(C(=O)c2ccc(N3CCNCC3)c(NS(C)(=O)=O)c2)CC1	i	-0.12
Cc1cc(N2CCCC2)nc(N2CCN(C(=O)CC3CCCC3)CC2)n1	i	-1
O=C(Nc1ccc(-c2cc3ccccc3[nH]2)cc1)c1cnccn1	i	0.72
CCCC(=O)Nc1ccc2nc(SCCOc3ccccc3)sc2c1	i	0.9
O=S(=O)(c1ccc(-c2noc(COc3ccc(Cl)cc3)n2)cc1)N1CCOCC1	i	-0.36
Cc1nc(NCCC2=CCCCC2)c2c(C)noc2n1	i	-0.01
CCc1cc(C2CCCN2S(=O)(=O)c2ccccc2)on1 (stereo not given)	i	-1.8
O=C(c1ccc(F)cc1)N1CCN(c2ccc(=O)n(-c3ccc(Cl)cc3)n2)CC1	i	0.48
CCOCCCNC(=O)c1cc2n(n1)CCCN(Cc1ccc(F)cc1)C2=O	i	0.41
Cc1ccnc(NC(c2ccc3c(c2)OCO3)c2c(NC(=O)c3ccccc3)sc(C)c2C)c1 (stereo not given)	i	0.06
O=C(Cn1nnc(C(=O)O)c1C(=O)O)Nc1ccc(F)cc1	i	0.3
COCCCNC(=O)c1ccc2c(c1)N(Cc1ccccc1C)C(=O)c1ccccc1S2=O (stereo not given)	i	0.02
COC(=O)c1ccccc1NC(=O)Cn1c(=O)c2ccccc2n2nncc12	i	-0.73
COc1ccc(-c2nonc2NC(=O)C(C)Oc2ccc(C(C)C)cc2)cc1C (stereo not given)	i	0.34
CC(C)Cc1ccc(S(=O)(=O)NCc2ccc3c(c2)CCN3C(=O)c2ccc(F)cc2)cc1	i	0.54
O=C(CN1C(=O)CCSc2ccccc21)Nc1ccc(F)cc1	i	-0.5
Cc1oc(C2CCN(C(=O)C(C)(C)C)CC2)nc1C(=O)N1CCCC1	i	0.18
CCOC(=O)c1c(C)[nH]c(C(=O)N2CCC(C(C)C(=O)NCc3ccc(C)cc3)CC2)c1C (stereo not given)	i	-0.19
COC(=O)C1CCCN1S(=O)(=O)c1ccc2c(ccn2C)c1 (stereo not given)	i	0.73
Cc1nc2cccnc2n1CCN1CCN(C(=O)NC2CCCCC2)CC1	i	0.96
CN(C)C(=O)N1CCN(C)c2ccccc21	i	0.47

Compound profiles (already shown).
O=C(CN1C(=O)CCSc2ccccc21)Nc1ccc(F)cc1 in the list: Choline anaer gr = i; Choline anaer gr early = -0.5
O=C(Cn1nnc(C(=O)O)c1C(=O)O)Nc1ccc(F)cc1 in the list: Choline anaer gr = i; Choline anaer gr early = 0.3

(list continues)
SMILES	Choline anaer gr	Choline anaer gr early
C=C(C)Cn1cnc2c(oc3nc4c(cc32)CCCC4)c1=O	i	-0.71
COc1ccc(Cn2c(CCC(=O)Nc3ccc(Cl)cc3)nc3cccnc32)cc1	i	1
CCn1cc(S(=O)(=O)N2C[C@H]3CN(S(=O)(=O)c4cccc(F)c4)C[C@@H](C2)O3)cn1	i	-0.68
COc1ccc(-c2cc(N3CCN(C(=O)Nc4cccc(C)c4C)CC3)ncn2)cc1	i	1.2
C=Cc1ccc(Cn2nc3n(C(C)C)c(=O)c4ccc(C(=O)NCC(C)C)cc4n3c2=O)cc1	i	1.1
COCC(=O)N1CCCC(C(=O)N2CCOCC2)C1 (stereo not given)	i	-1.3
O=C(O)Cc1csc2ccccc12	i	-0.39
Cc1cccc(CNC(=O)c2ccc(-c3nc(CCN(C)C(=O)Nc4ccccc4)no3)cc2)c1	i	-0.2
Cc1ccc(-c2noc(-c3cccn4c(=O)n(Cc5ccc6c(c5)OCO6)nc34)n2)cc1	i	0.32
CCC1Cn2c(C(=O)NCCOC)cc3c(Cl)ccc(c32)O1 (stereo not given)	i	-0.54
CCc1c(C)nc2ncnn2c1Nc1ccccc1C	i	0.38
CC(C)CCNC(=O)N1CCC(N2CCN(Cc3cccc(F)c3)C(=O)C2=O)CC1	i	-0.42
COc1ccc(-c2csc(-c3nc(-c4ccc(OC)cc4)cs3)n2)cc1	i	-0.08
COc1cccc(CNC(=O)CSc2nc(N3CCc4ccccc4C3)nc3ccccc23)c1	i	-0.42
Cc1ccc(-c2nc3n(CC(=O)NC4CCCC4)c4c(c(=O)n3n2)CCC4)cc1	i	0.28
C=CCc1ccccc1OCc1cc(=O)n2ccsc2n1	i	-0.22
Cc1ccc(C)c(OCc2nc(C)c(C(=O)Nc3nccs3)s2)c1	i	-0.16
CCc1ccc(-c2cc(C)no2)cc1S(=O)(=O)N1CCCC(CN2CCc3ccccc3C2)C1 (stereo not given)	i	-0.89
